Vaccinia stage – blocks a specific stage of Vaccinia orthopoxvirus infection; Vaccinia-infected cells, mCherry/Venus stage reporter fluorescence; stronger effect = lower value; some inactives read as strong as hits; activity change (mCherry), % (no concentration beside the values); 0.01% of 89,000 active; AID 1053133;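 active = mCherry past -33% and 40 or more points under the early reporter, replicates agreeing; inconclusive = past -33% without that gap or agreement; tested in A549 cells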;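 note: scaled between vehicle wells and reference inhibitor wells; 23 nL library stock went into each well; one replicate is shown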
Vaccinia stage Venus – recorded beside Vaccinia stage, whose call it bears; activity change (Venus), %; measured here: Venus reporter, other viral stage;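 negative = less Venus signal; first of two replicates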
Numbers without * were called inactive; ? = inconclusive; nt = no result given; & = joins results of further samples. These rows are one share of the data; rates above refer to the full screens.

SMILES	Vaccinia stage	Vaccinia stage Venus
C[C@@H]1CCCCO[C@@H](CN(C)C(=O)Nc2ccc(C(F)(F)F)cc2)[C@H](C)CN([C@@H](C)CO)C(=O)c2cc(NS(=O)(=O)c3cn(C)cn3)ccc2O1	13.4	1.9
O=C(c1ccccc1)N1C[C@@H]2[C@H](c3ccccc31)[C@H](CO)N2Cc1ccccn1	12.7	6.9
CN1CCN(C(=O)[C@@H]2[C@@H](CO)[C@@H]3Cn4c(ccc(C5=CCCC5)c4=O)[C@@H]3N2Cc2nccs2)CC1	-1.2	4.7
C[C@H](CO)N1C[C@H](C)[C@@H](CN(C)Cc2cccc(F)c2)Oc2ncc(-c3ccccc3F)cc2C1=O	-13.9	-3.2
C[C@@H]1CN([C@H](C)CO)C(=O)c2cccc(NC(=O)Nc3ccc(C(F)(F)F)cc3)c2O[C@@H]1CN(C)S(=O)(=O)c1cccs1	?	nt
C[C@H](CO)N1C[C@H](C)[C@H](CN(C)Cc2ccc3c(c2)OCO3)OCCCC[C@H](C)Oc2ccc(NS(C)(=O)=O)cc2C1=O	-3.1	-6.8
C[C@H](CO)N1C[C@H](C)[C@@H](CN(C)C(=O)Nc2cccc(F)c2)Oc2cc(/C=C/c3ccccc3)ccc2S1(=O)=O	?	nt
C[C@@H]1CN([C@H](C)CO)C(=O)c2cc(NS(C)(=O)=O)ccc2O[C@H]1CN(C)C	7.0	12.3
O=C(C1CCC1)N1C[C@@H]2N[C@H](C1)C2c1ccc(-c2cncnc2)cc1 (stereo partly drawn)	?	nt
C[C@H](CO)N1C[C@H](C)[C@H](CN(C)S(=O)(=O)c2cccc(F)c2)OCc2ccccc2-c2c(n(C)c3ccccc23)C1=O	?	nt
O=C(CCN1CCCCC1)NCC[C@H]1CC[C@H](NC(=O)Nc2ccc(Cl)cc2)[C@@H](CO)O1	7.7	7.8
O=C(C[C@H]1CC[C@H]2[C@@H](COC[C@@H](O)CN2Cc2ccccc2F)O1)NCc1ccccc1F	-8.4	2.5
C[C@@H]1CN([C@H](C)CO)C(=O)c2cc(NC(=O)C3CCCCC3)ccc2O[C@@H]1CN(C)C(=O)Nc1ccc2c(c1)OCO2	-6.1	-10.1
CCC(=O)N(C)C[C@@H]1Oc2cc(-c3cccc(C#N)c3)ccc2S(=O)(=O)N([C@H](C)CO)C[C@@H]1C	20.6	10.8
CCCNC(=O)N(C)C[C@H]1Oc2cc(C#CCC(C)C)ccc2S(=O)(=O)N([C@H](C)CO)C[C@H]1C	11.3	3.2
C[C@@H]1CN([C@@H](C)CO)C(=O)c2cc(NS(=O)(=O)c3ccc(F)cc3)ccc2O[C@@H]1CN(C)Cc1ccc(-c2ccccc2)cc1	?	nt
N#Cc1cccc(-c2ccc([C@@H]3[C@@H](CO)N4CCCCN(Cc5ccccc5F)C[C@@H]34)cc2)c1	?	nt
C[C@@H]1CN([C@@H](C)CO)C(=O)c2ccccc2-c2ccccc2CO[C@H]1CN(C)C(=O)N[C@H](C)c1ccccc1	10.8	0.5
COc1ccc(NC(=O)N(C)C[C@@H]2OCCCC[C@@H](C)Oc3ccc(NS(=O)(=O)c4ccc(C)cc4)cc3C(=O)N([C@H](C)CO)C[C@@H]2C)cc1	45.0	14.0
O=C(C[C@H]1CC[C@H]2[C@@H](COC[C@@H](O)CN2C(=O)c2ccc(F)cc2)O1)NCCCN1CCOCC1	0.5	1.7
COc1ccc(NC(=O)N(C)C[C@H]2Oc3ccc(NC(=O)Nc4ccc5c(c4)OCO5)cc3C(=O)N([C@@H](C)CO)C[C@@H]2C)cc1	16.3	3.5
COC(=O)C[C@H]1CC[C@@H]2[C@H](COc3ccc(NC(=O)c4ccccc4)cc3C(=O)N2C)O1	-0.1	2.5
Cc1noc(C)c1NC(=O)N[C@@H]1C=C[C@@H](CC(=O)Nc2ccc(-c3ccccc3)cc2)O[C@H]1CO	-0.1	3.9
COc1ccc(NC(=O)Nc2ccc3c(c2)C(=O)N([C@@H](C)CO)C[C@@H](C)[C@H](CN(C)C(=O)Nc2ccc(F)cc2)OCCCC[C@H](C)O3)cc1	5.1	1.9
CCNC(=O)c1cc2c(c(-c3cccc(-c4cc5ccccc5o4)c3)n1)[C@@H](CCO)N(C(=O)NC(C)C)C2	?	nt
SMILES	Vaccinia stage	Vaccinia stage Venus
Cc1noc(C)c1S(=O)(=O)Nc1ccc2c(c1)CC(=O)N([C@@H](C)CO)C[C@H](C)[C@H](CN(C)Cc1ccc(C(=O)Nc3ccccc3N)cc1)O2	21.4	3.1
O=C(C[C@H]1C[C@H]2c3cc(NC(=O)c4ccc5c(c4)OCO5)ccc3O[C@H]2[C@H](CO)O1)NCc1ccc(Oc2ccccc2)cc1	8.9	2.8
C[C@H](CO)N1C[C@H](C)[C@H](CN(C)C(=O)Nc2cccc3ccccc23)Oc2c(NC(=O)Nc3ccc(C(F)(F)F)cc3)cccc2C1=O	-27.7	-28.5
CO[C@H]1CN(C)C(=O)c2ccc(NC(C)=O)cc2OC[C@H](C)N(C(=O)c2cccnc2)C[C@H]1C	9.6	7.2
C[C@@H]1CN([C@H](C)CO)C(=O)CCCn2cc(nn2)CO[C@H]1CN(C)Cc1cccc(C(=O)O)c1	12.4	15.1
CO[C@@H]1CN(C)C(=O)c2cc(NC(=O)NC3CCCCC3)ccc2OC[C@@H](C)N(C)C[C@H]1C	-6.2	-3.9
CN(C)C(=O)[C@@H]1[C@@H](CO)[C@@H]2Cn3c(ccc(-c4ccccc4)c3=O)[C@@H]2N1CCC(F)(F)F	-12.3	-3.2
C/C=C/c1cnc2c(c1)C(=O)N([C@H](C)CO)C[C@H](C)[C@@H](CN(C)S(=O)(=O)c1ccc(F)cc1)O2	4.1	-2.1
C[C@H]1CN([C@@H](C)CO)S(=O)(=O)c2ccc(/C=C/c3ccccc3)cc2O[C@H]1CN(C)Cc1cccnc1	-31.8	-23.7
CC(C)NC(=O)Nc1ccc2c(c1)CC(=O)N([C@H](C)CO)C[C@@H](C)[C@@H](CN(C)Cc1ccc3c(c1)OCO3)O2	1.4	10.0
C[C@@H]1CN([C@H](C)CO)C(=O)c2cccc(NC(=O)NC3CCCCC3)c2O[C@@H]1CN(C)C(=O)Nc1ccc2c(c1)OCO2	-13.4	-0.6
COc1ccc(-c2cnc3c(c2)C(=O)N([C@@H](C)CO)C[C@@H](C)[C@H](CN(C)C(=O)Cc2ccncc2)O3)cc1	14.1	9.3
C[C@@H]1CN([C@@H](C)CO)C(=O)c2cc(NC(=O)CCC(F)(F)F)ccc2O[C@H]1CN(C)Cc1ccc(C(=O)O)cc1	3.5	-5.5
C[C@@H]1CN([C@H](C)CO)S(=O)(=O)c2ccc(-c3cncnc3)cc2O[C@H]1CN(C)Cc1ccccn1	14.3	11.2
COc1ccc(NC(=O)Nc2ccc3c(c2)CC(=O)N([C@H](C)CO)C[C@H](C)[C@@H](CN(C)C(=O)Nc2ccc(OC)cc2)O3)cc1	1.7	4.9
C[C@H](CO)N1C[C@H](C)[C@H](CN(C)C(=O)C2CCC2)Oc2cc(-c3ccc(C(=O)N(C)C)cc3)ccc2S1(=O)=O	7.5	6.2
C[C@@H]1CN([C@@H](C)CO)C(=O)Cc2cc(NC(=O)CCC(F)(F)F)ccc2O[C@H]1CN(C)Cc1ccncc1	4.6	2.2
CO[C@H]1CN(C)C(=O)c2ccc(NS(=O)(=O)c3ccc(Cl)cc3)cc2OC[C@@H](C)N(C(=O)NC(C)C)C[C@H]1C	-8.8	-0.1
O=C(NC[C@H]1[C@@H](c2ccccc2)[C@H](CO)N1C(=O)Cc1ccncc1)C1CCC1	9.1	9.0
COc1ccccc1CNC(=O)C[C@H]1C=C[C@H](NC(C)=O)[C@@H](CO)O1	-1.0	2.2
CO[C@@H]1CN(C)C(=O)c2ccc(NC(=O)C3CC3)cc2OC[C@@H](C)N(C(=O)c2ccccc2F)C[C@H]1C	17.2	17.6
CN(C)C(=O)C[C@H]1C[C@H]2c3cc(NC(=O)NC4CCCCC4)ccc3O[C@H]2[C@@H](CO)O1	-0.9	-0.1
C[C@@H]1CN([C@@H](C)CO)C(=O)c2cc(-c3cncnc3)cnc2O[C@H]1CN(C)C(=O)Cc1ccccc1	9.3	8.7
C[C@@H]1CN([C@@H](C)CO)C(=O)c2cc(C#CC(C)(C)O)cnc2O[C@H]1CN(C)C(=O)C1CC1	13.5	5.4
O=C(CN1CCOCC1)NCC[C@H]1CC[C@H](NC(=O)Nc2ccc(C(F)(F)F)cc2)[C@H](CO)O1	-8.4	-9.6

By substructure: the compounds so far with a Cl atom
SMILES	Vaccinia stage	Vaccinia stage Venus
O=C(CCN1CCCCC1)NCC[C@H]1CC[C@H](NC(=O)Nc2ccc(Cl)cc2)[C@@H](CO)O1	7.7	7.8
CO[C@H]1CN(C)C(=O)c2ccc(NS(=O)(=O)c3ccc(Cl)cc3)cc2OC[C@@H](C)N(C(=O)NC(C)C)C[C@H]1C	-8.8	-0.1

(more compounds)
SMILES	Vaccinia stage	Vaccinia stage Venus
CN1C(=O)c2cc(NC(=O)c3cccs3)ccc2OC[C@@H]2O[C@@H](CC(=O)N3CCCCC3)CC[C@H]21	-3.1	3.1
CO[C@H]1CC[C@@H]2CCOc3c(C#N)cccc3C(=O)N(C)C[C@H](c3ccccc3)CC(=O)N(C)C[C@H]1O2	11.8	6.4
C[C@H](CO)N1C[C@H](C)[C@H](CN(C)S(=O)(=O)c2ccccc2)Oc2ccc(NC(=O)c3ccncc3)cc2C1=O	9.7	8.2
C[C@H](CO)N1C[C@H](C)[C@H](CN(C)C)Oc2c(NC(=O)C3CCOCC3)cccc2C1=O	-8.7	-15.0
C[C@H]1CN([C@@H](C)CO)S(=O)(=O)c2ccc(Br)cc2O[C@@H]1CN(C)C(=O)CN(C)C	-4.5	-7.6
COc1ccc(-c2cnc3c(c2)C(=O)N([C@H](C)CO)C[C@H](C)[C@H](CN(C)Cc2ccccn2)O3)cc1	18.3	5.4
C[C@H](CO)N1C[C@H](C)[C@@H](CN(C)S(=O)(=O)c2cn(C)cn2)OCCCC[C@H](C)Oc2ccc(NC(=O)NC3CCCCC3)cc2C1=O	25.1	9.5
O=C(N[C@H]1CC[C@@H](CCNS(=O)(=O)c2ccc(F)cc2)O[C@@H]1CO)c1cccnc1	-1.1	-6.1
C[C@@H]1CN([C@H](C)CO)S(=O)(=O)c2ccc(-c3ccc(F)cc3)cc2O[C@@H]1CN(C)C	-9.4	-13.1
C[C@@H]1CN([C@H](C)CO)C(=O)c2cc(NC(=O)Nc3ccc(F)cc3)ccc2O[C@@H](C)CCCCO[C@@H]1CN(C)Cc1ccc(Cl)c(Cl)c1	2.0	1.6
COCCNC(=O)C[C@@H]1CC[C@H]2[C@@H](COc3ccc(NS(=O)(=O)c4ccc(Cl)cc4)cc3C(=O)N2C)O1	-0.1	-3.5
COc1ccccc1-c1ccc2c(c1)[C@@H]1[C@@H](CCN1C(=O)C1CC1)[C@@H](CO)N2	-30.9	-21.7
O=C(C[C@@H]1C=C[C@@H](NC(=O)C2CCOCC2)[C@@H](CO)O1)NCC1CCCCC1	4.4	4.7
C[C@@H]1CN([C@H](C)CO)C(=O)Cc2cc(NC(=O)Cn3cnnn3)ccc2O[C@H]1CN(C)C(=O)Nc1ccc(C(F)(F)F)cc1	3.3	-2.0
O=C(N[C@H]1CC[C@H](CCNS(=O)(=O)c2ccccc2)O[C@H]1CO)c1cccc(F)c1	18.0	5.0
O=C(Nc1ccccc1)N1CC(=O)N2[C@H](CO)[C@@H](c3ccc(C#CC4CCCCC4)cc3)[C@@H]2C1	?	nt
C[C@H](CO)N1C[C@H](C)[C@@H](CN(C)C(=O)CCN(C)C)OCc2ccccc2-c2c(n(C)c3ccccc23)C1=O	-25.7	-24.4
Cc1noc(C)c1S(=O)(=O)Nc1ccc2c(c1)C(=O)N([C@H](C)CO)C[C@H](C)[C@H](CN(C)C)OCCCC[C@H](C)O2	14.2	4.0
COc1cccc(CN2[C@@H]3CNC[C@H]2C3c2ccc(-c3ccncc3)cc2)c1 (stereo partly drawn)	6.7&2.3	2.5&-2.2
C[C@H]1CN([C@@H](C)CO)C(=O)c2cc(-c3cccc(C#N)c3)cnc2O[C@@H]1CN(C)C(=O)c1ccccn1	-1.8	0.3
Cc1ccc(S(=O)(=O)NC[C@@H]2CC[C@@H]3[C@@H](CN3Cc3cc(F)ccc3F)O2)cc1	3.3	6.0
C[C@@H]1CCCCO[C@H](CN(C)C(=O)c2ccncc2)[C@@H](C)CN([C@H](C)CO)C(=O)c2cc(NC(=O)CCCCCC(=O)Nc3ccccc3N)ccc2O1	9.3	6.4
CCCNC(=O)N(C)C[C@@H]1Oc2ncc(C#CC3(O)CCCC3)cc2C(=O)N([C@@H](C)CO)C[C@@H]1C	-5.5	-5.0
COc1ccccc1NC(=O)N[C@H]1CC[C@@H](CCNS(=O)(=O)c2ccc(Cl)cc2)O[C@H]1CO	-10.8	-7.2
COc1ccc([Si](C)(C)[C@H]2[C@H](CCO)O[C@@]3(C(=O)N(Cc4ccccc4)c4ccc(N5CCOC5=O)cc43)[C@@H]2C)cc1	?	nt
Cc1noc(C)c1NC(=O)N(C)C[C@@H]1OCCCC[C@H](C)Oc2ccc(NC(=O)Nc3ccc(C(F)(F)F)cc3)cc2C(=O)N([C@@H](C)CO)C[C@H]1C	-1.6	4.6
C[C@@H]1CN([C@@H](C)CO)C(=O)c2cc(C#Cc3ccccc3F)cnc2O[C@@H]1CN(C)C(=O)c1ccc2c(c1)OCO2	?	nt
C[C@@H]1CN([C@@H](C)CO)S(=O)(=O)c2ccc(C#CCN(C)C)cc2O[C@H]1CN(C)C	9.4	1.5

Single records, from the list above.
COc1cccc(CN2[C@@H]3CNC[C@H]2C3c2ccc(-c3ccncc3)cc2)c1 (stereo partly drawn) is listed with Vaccinia stage = 6.7&2.3; Vaccinia stage Venus = 2.5&-2.2
C[C@@H]1CN([C@@H](C)CO)S(=O)(=O)c2ccc(C#CCN(C)C)cc2O[C@H]1CN(C)C is listed with Vaccinia stage = 9.4; Vaccinia stage Venus = 1.5
